Mtb MenB inh: Mtb MenB enzyme inhibition; inhibition, %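 (about 12 µg/mL by stock and volumes)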; MenB enzyme assay, absorbance read-out; some hits fall short of the stated cut; AID 540299; 0.43% of 100,000 active;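 active means mean of two replicates above 30%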;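 further: 0% = no compound and 100% = wells with inactive enzyme; the first replicate is given; strong numbers were not always called active; inactives centre near -10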
Target sequence (P9WNP5 whole entry, looked up): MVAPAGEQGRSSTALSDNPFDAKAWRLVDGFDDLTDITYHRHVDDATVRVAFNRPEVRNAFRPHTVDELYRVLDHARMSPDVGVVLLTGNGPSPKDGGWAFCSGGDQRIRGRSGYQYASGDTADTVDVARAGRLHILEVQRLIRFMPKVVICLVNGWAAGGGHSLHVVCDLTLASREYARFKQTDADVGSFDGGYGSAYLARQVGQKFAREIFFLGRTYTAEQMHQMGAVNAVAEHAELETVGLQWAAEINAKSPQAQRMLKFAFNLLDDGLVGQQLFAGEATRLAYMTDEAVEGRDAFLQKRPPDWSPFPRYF
Polio RdRp inh: poliovirus RNA polymerase inhibition; 0.66% of 150,000 active; P03300; % elongation, % (compound at 16.7 µg/mL); poliovirus polymerase elongation, fluorescence polarization; active compounds read low; in the data active means % elongation below about 90%; further: some results filed as inactive read as strong as hits
MbtI inh: blocks the Mycobacterium tuberculosis siderophore enzyme MbtI; purified MbtI enzyme, fluorescence intensity read-out; inhibition, %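 (about 17 µg/mL by stock and volumes)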; 0.89% of 100,000 active; AID 493033;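 active means above 50% in both replicates, above 80% if mildly self-fluorescent; inactive means the rest, strongly fluorescent compounds included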;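 further: 0% = mean of negative and 100% = mean of positive controls; one replicate is shown; some compounds called inactive have numbers as strong as hits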
Target sequence (P9WFX0 whole entry, looked up): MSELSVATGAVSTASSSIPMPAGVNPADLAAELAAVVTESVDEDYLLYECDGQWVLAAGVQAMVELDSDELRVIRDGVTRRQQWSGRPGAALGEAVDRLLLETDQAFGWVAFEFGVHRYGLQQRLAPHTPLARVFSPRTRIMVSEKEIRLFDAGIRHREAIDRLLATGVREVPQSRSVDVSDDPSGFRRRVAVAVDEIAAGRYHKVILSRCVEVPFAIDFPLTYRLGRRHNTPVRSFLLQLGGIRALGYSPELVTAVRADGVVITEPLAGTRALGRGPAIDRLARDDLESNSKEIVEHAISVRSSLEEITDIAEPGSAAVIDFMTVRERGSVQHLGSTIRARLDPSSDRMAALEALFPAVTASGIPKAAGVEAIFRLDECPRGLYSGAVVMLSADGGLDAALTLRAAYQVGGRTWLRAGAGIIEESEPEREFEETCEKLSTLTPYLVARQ
Polio RdRp inh intensity: also measured in Polio RdRp inh; calls as there; % elongation; measured here: total intensity read-out; formula for this scale not given here;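 total fluorescence in place of polarization; lower means less elongation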
Numbers without * were called inactive; i = inactive; nt = not tested or not shown. No enrichment for hits; 1.7% or so of the library scored in one or more.

Values run as follows: Mtb MenB inh	Polio RdRp inh	Polio RdRp inh intensity	MbtI inh
> O=C1Nc2ccccc2/C1=C\c1ccc(N2CCOCC2)cc1
→ -90	113	103	-7
> CC(C)C(=O)Nc1sc2c(c1C(=O)O)CCCC2
→ 7	102	101	3
> COC(=O)c1cccc(OCC(O)Cn2ccnc2)c1 (configuration not stated)
→ -14	102	104	-8
> O=C(O)/C(S)=C\C=C\c1ccccc1
→ -35	101	105	46
> COCCNC(=S)c1ccc(OC)cc1
→ -33	99	99	46
> O=C(Nc1nc2ccc(S(=O)(=O)N3CCCC3)cc2s1)c1ccncc1
→ 0	102	110	-14
> COc1ccc(CCNC(=O)/C(C#N)=C/c2ccc[nH]2)cc1OC
→ -11	102	98	27
> COc1nc(NCCC2=CCCCC2)nc(N2CC3CC(C2)c2cccc(=O)n2C3)n1 (configuration not stated)
→ -11	97	104	nt
> O=C(CCCSc1ccccc1)Nc1cccc(CO)c1
→ -36	99	102	21
> CCn1nnc2cc(C(=O)Nc3ccc4c(c3)CCC4)ccc21
→ -5	113	128	7
> CCc1ccc(OCc2nnc(SCC(=O)NC)n2CC(C)C)cc1
→ -25	104	106	-13
> COc1ccccc1NC1=NC(C)(C)N=C(N)N1
→ 2	100	102	-10
> N#Cc1ccc(CN2CCCC2)cc1
→ -6	105	97	-3
> COc1cccc(NC(=O)C2CCN(S(=O)(=O)c3cc(Br)cc4c3N(C(C)=O)CC4)CC2)c1
→ 3	103	103	-1
> CC1CCCC(C)N1C(=O)COC(=O)c1ccc[nH]c1=O (configuration not stated)
→ -28	102	96	15
> O=C1NCCN/C1=C/C(=O)c1ccc(Br)cc1
→ -75	102	106	-10
> CC(C)Oc1ccc(CCN=C(N)N=C(N)N)cc1Cl
→ -12	102	106	-26
> CCOC(=O)CCn1cc(F)c(=O)[nH]c1=O
→ -5	101	106	-13
> CCCC1NC(=O)NC(C)=C1C(=O)OCC (configuration not stated)
→ 8	98	101	1
> C/C(=N\S(=O)(=O)c1ccc(C)cc1)N1CCCN(S(=O)(=O)c2ccc(C)cc2)C1C(C)C (configuration not stated)
→ -12	98	102	-223
> C(=Nc1ccc(N2CCOCC2)cc1)c1ccc(Sc2nc3ccccc3[nH]2)o1
→ 6	101	101	nt
> S=C(N/N=C/c1ccco1)NC1CC2CCC1C2 (configuration not stated)
→ -10	102	97	11
> CCCN(Cc1nnc(-c2ccco2)o1)C(=O)CN1C(=O)COc2ccccc21
→ -2	102	101	-4
> CCc1nnc(NC(=O)c2ccc(S(=O)(=O)N(CC)CC)cc2)s1
→ 7	98	100	10
> Cc1onc(-c2ccccc2Cl)c1NC(=O)NCCc1ccncc1
→ -6	99	92	-8
> CC(C)=C1C2C=CC1C1C(=O)N(CCO)C(=O)C21 (configuration not stated)
→ 8	101	102	-6
> CC(C)(C)c1ccc(-c2n[nH]c(=S)n2N=Cc2ccccn2)cc1
→ -68	103	105	nt
> COc1c2ccoc2nc2c(OC)c(OC3OC(C)C(O)C(O)C3O)ccc12 (configuration not stated)
→ -6	104	102	118
> CCc1ccc(NC(=O)c2cc3c(=O)oc4ccc(C)cc4c3s2)cc1
→ -19	105	107	14
> CC(c1ccccc1)C1CC(=O)N(c2ccc(OC(F)(F)F)cc2)C1=O (configuration not stated)
→ -23	103	112	nt
> CNC(=S)NNc1ncc(C(F)(F)F)cc1Cl
→ -4	101	104	24
> O=C(O)CCP(=O)(O)CN1CCCCCC1
→ -19	104	109	-4
> O=C(Nc1ncc(Cc2ccccc2)s1)C1CCCO1 (configuration not stated)
→ -77	102	99	3
> Cc1cc(C)n(-c2ccc(Cl)c(C(=O)OCc3ccccc3)c2)n1
→ -30	107	101	nt
> COc1cc2c(cc1O)CC1c3c(c(OC)c(OC)c(OC)c3-2)CCN1C (configuration not stated)
→ -13	101	94	nt
> Cc1ccc(S(=O)(=O)c2ccc(/C=C/c3ccco3)cc2)cc1
→ -9	105	109	nt
> O=C(O)C1CSC2(CCCCC2)N1 (configuration not stated)
→ -73	108	106	nt
> CC1=C(C(=O)NC2CCCCCC2)C2(CCCCCC2)OC1=O
→ -5	102	101	-26
> COC(=O)COc1ccc(C)cc1-n1nc2ccccc2n1
→ -35	103	102	90
> O=C(CN1C(=O)NC2NC(=O)NC21)N/N=C/c1ccccc1O (configuration not stated)
→ -86	100	101	6
> COc1ccccc1C(=O)OCC(=O)C(C)(C)C
→ nt	102	99	2
> CCN(CC)c1ccc(/C=N/NC=O)c(O)c1
→ -100	141	148	-8
> O=C(Cc1ccccc1F)Oc1ccc(-c2nnco2)cc1
→ -12	94	94	-5
> NCCSc1nc2ccccc2[nH]1
→ nt	102	101	-2
> CCN(Cc1ccc(OCc2cccs2)c(OC)c1)C(=O)c1cc(C)oc1C
→ -25	103	110	-11
> COC(=O)c1c(C)oc2cc(C)c(NS(=O)(=O)c3cccs3)cc12
→ 9	103	110	-1
> CC1CC(C)CN(C(=O)c2cccc3c2-c2ccccc2C3=O)C1 (configuration not stated)
→ -18	104	106	0
> OCCn1c(-c2ccccc2)cn2c3ccccc3nc12
→ -18	106	112	nt
> CCN1C(=O)NC(=O)/C(=C\c2cn(CC(=O)NCC3CCCO3)c3ccccc23)C1=O (configuration not stated)
→ -31	103	101	112
> CC(C)(C)NC(=O)Cn1nc(-c2cc3c(s2)CCCC3)oc1=O
→ 7	101	107	-6
> N#C/C(=C(/O)c1cccc2ccccc12)c1nc2ccccc2[nH]1
→ -17	101	103	9
> CCc1ccccc1Nc1nc(N)nc(Cn2cnc3ccccc32)n1
→ -14	102	102	-5
> COc1ccc(O)c(C(=O)c2cnn(C(=O)c3ccc4c(=O)n5c(nc4c3)CCC5)c2)c1
→ -6	nt	nt	-4
> COC(=O)CCn1c(=O)c2cccn2c2ccccc21
→ -3	102	104	-2
> COc1cc(CN(C)Cc2ccccc2)cc(OC)c1O
→ 10	105	98	10
> CC(=O)OCC1OC(OC(C)=O)C(NC(=O)C(C)C)C(OC(C)=O)C1OC(C)=O (configuration not stated)
→ -10	105	99	-4
> O=C(COC(=O)c1ccccc1)Nc1ccc(OC(F)F)cc1
→ 2	99	105	-8
> CCN(CC)CC1OCC2(CO1)COC(CN(CC)CC)OC2 (configuration not stated)
→ -23	109	107	-5
> CCC(=O)Nc1ccc(NC(=O)c2ccc(F)cc2)nc1
→ -9	102	103	48
> CC(O)Cn1c2ccccc2c2ccccc21 (configuration not stated)
→ 11	98	103	-99

Other results.
Values run as follows: Mtb MenB inh	Polio RdRp inh	Polio RdRp inh intensity	MbtI inh
> COc1ccccc1NC(=O)Cc1nc(CSc2nncn2C(C)C)cs1
→ -15	nt	nt	16
> CCCn1c2ccccc2c2cnn(CC(=O)OC)c(=O)c21
→ -5	103	100	116
> O=C(c1cc2c(Cl)nc3ccccc3c2s1)N1CCC2(CC1)OCCO2
→ -18	101	99	3
> CCOC(=O)c1c(C)c(NC(C)=O)c(C)n1C(C)=O
→ -5	107	103	nt
> Cc1cn(C2CC(NC(=O)C(C)(C)C)C(CO)O2)c(=O)[nH]c1=O (configuration not stated)
→ -19	106	97	nt
> O=C(c1ccccc1)N1c2ccccc2OC1c1ccc2c(c1)OCO2 (configuration not stated)
→ 6	103	103	5
> Cc1cc(C(=O)COC(=O)C23CC4CC(CC(C4)C2)C3)c(C)n1-c1nccs1
→ -18	102	104	-11
> CC(C)Oc1cccc(C(=O)Nc2ccccc2)c1
→ -23	100	104	-22
> CC(=O)N1CCN(Cc2ccccc2F)CC1
→ 3	100	105	-11
> COc1ccc(-n2nnnc2-c2c[nH]c3ccc(Cl)cc23)cc1
→ -16	102	106	2
> CCCc1nc(Sc2nncn2C)c2sc(=S)n(-c3ccccc3)c2n1
→ 2	105	98	nt
> COC(=O)c1ccc(/C=C2/SC(=O)N(C(C)C(=O)OC)C2=O)cc1 (configuration not stated)
→ -33	99	101	-11
> O=C(c1ccc2c(c1)N(Cc1ccccc1)C(=O)c1ccccc1S2=O)N1CCN(Cc2ccccc2)CC1 (configuration not stated)
→ 3	101	102	-2
> O=C(CCS(=O)(=O)c1ccccc1)Nc1ccc2sccc2c1
→ -29	104	95	-8
> Cc1ccc(-c2noc(COC(=O)c3nn(-c4ccccc4C(F)(F)F)cc3O)n2)cc1
→ -39	103	98	-3
> Cc1ccccc1-n1c2nc(C#N)c(C#N)nc2c2c1nc(C(C)C)n1c3ccccc3nc21
→ -23	120	148	-13
> CCc1ccccc1NC(=O)CC1Nc2ccccc2NC1=O (configuration not stated)
→ -10	107	108	nt
> CCOC(=O)N1CCC(n2c(SCC(=O)NCc3ccccc3)nc3ccccc3c2=O)CC1
→ 15	100	101	-7
> O=c1c(OCCc2ccccc2)c(-c2ccco2)oc2ccccc12
→ -42	97	108	14
> CCC(C)NC(=O)C1c2ccccc2C(=O)N1Cc1ccccc1 (configuration not stated)
→ -14	nt	nt	-6
> Cc1ccccc1C(=O)N1CCc2ccccc2C1
→ 4	102	104	0
> O=C(COc1ccccc1)N1CCN(CC(O)COc2ccccc2)CC1 (configuration not stated)
→ -15	103	103	-7
> O=C(NC(=S)Nc1ccc(-c2nc3ccccc3o2)cc1)c1ccccc1
→ -37	101	103	-301
> Cc1cc(C)n(C(=O)CNC(=O)Cc2ccccc2)n1
→ -6	102	99	-21
> O=C(O)COc1cccc(F)c1
→ nt	102	105	-7
> CN1C(=O)/C(=C2/Sc3ccccc3N2C)SC1=NC1CCCCC1
→ -15	102	102	-14
> CC(C)(C)S(=O)(=O)/C(C#N)=C/Nc1ccc(Cl)cn1
→ -11	103	103	8
> Cc1nnc(Cl)c2ccccc12
→ 0	86	119	4
> Brc1ccc2cc(Oc3cnccn3)ccc2c1
→ -40	101	107	-6
> COc1ccc(C2C3=C(CCCC3=O)NC3=C2C(=O)c2ccccc23)c(OC)c1OC (configuration not stated)
→ 1	103	101	-6
> CCOc1ccc2c(CC)cc(=O)oc2c1C
→ -16	100	99	i
> Cc1cc2c(cc3c(=O)n(CC(=O)NCCN4CCOCC4)ncn32)s1
→ -1	101	105	-5
> COc1cc(OC)c(NC(=O)c2ccc3nc(N4CCOCC4)sc3c2)cc1Cl
→ 1	99	98	88
> Cc1c(C(=O)Nc2ccccc2)sc2ncn(CC(=O)N3CCC(C)CC3)c(=O)c12
→ -11	107	111	nt
> CC1(C)CC(=NNC(=O)c2n[nH]c3c2CCC3)CC(C)(C)N1
→ i	105	102	-8
> CN(c1ccccc1)c1nc(OC(C(F)(F)F)C(F)(F)F)nc(OC(C(F)(F)F)C(F)(F)F)n1
→ -4	104	105	-3
> COCC(C)n1c(C)cc(C(=O)Cn2ncc(Cl)c(Cl)c2=O)c1C (configuration not stated)
→ 6	106	114	1
> O=C(COC(=O)CC1CCCC1)Nc1cc(C(F)(F)F)ccc1Cl
→ nt	102	104	-12
> CSc1ncccc1C(=O)OCC(=O)N1CCCC1
→ 0	103	107	-2
> CCN(CC)Cc1c(C(C)(C)C)oc(C)c1C(=O)O
→ -46	100	100	3
> NC(=O)c1nc(-c2cccnc2)nc2c1[nH]c(=O)n2-c1ccccc1
→ -13	100	101	66
> CCc1ccc(CN(Cc2cccnc2)C(=O)c2cnc(C)cn2)cc1
→ -6	99	100	2
> COc1cccc(CNS(=O)(=O)c2ccc3c(c2)OCC(C(=O)N2CCCCC2)O3)c1 (configuration not stated)
→ -25	99	100	7
> COc1ccc(C=Nc2ccc3c(c2)nc(C)n3C)cc1
→ 16	100	103	14
> O=C(Nc1ccc2c(c1)OCCO2)c1ccc(CSc2ncn[nH]2)cc1
→ 3	97	97	-1
> O=S(=O)(Nc1ccc(N2CCCCC2)cc1)c1ccccc1C(F)(F)F
→ -15	105	109	4
> CN(C)S(=O)(=O)c1ccc(N2CCC(C(=O)O)CC2)cc1
→ 2	99	102	0
> Cc1nc(SCC(=O)NCc2cccs2)n(C2CCCCC2)c1C
→ 10	107	102	20
> COc1ccc2c(CC(=O)OC(C)C(=O)NCc3ccc4c(c3)OCO4)coc2c1 (configuration not stated)
→ -26	105	106	3
> COc1cc2c(cc1OC)[C@@]13CCN4CC5=CCOC6CC(=O)N2C1[C@H]6[C@H]5C[C@H]43 (some centres not stated)
→ -8	100	100	-2
> O=c1c2ccccc2nnn1CSc1ncnc2ccccc12
→ -7	98	103	-3
> CC(C)Cn1c(O)c(N=NC(=O)c2cccnc2)c2ccccc21
→ -12	100	94	-3
> O=C1NC(=O)C2C3c4ccccc4C(c4ccccc43)C12 (configuration not stated)
→ 11	102	102	6
> CN(C)C(CNC(=O)c1ccccc1Cl)c1ccccc1 (configuration not stated)
→ -5	101	104	-7
> COc1ccc(Cl)cc1NC(=O)CN1CCN(S(=O)(=O)N(C)C)CC1
→ 5	101	102	-1

Screens: PubChem BioAssay, ICCB-Longwood Screening Facility, Harvard Medical School
